Source: PubChem BioAssay (several laboratories)
RGS16-Gao HTS – RGS16-Galphao interaction regulator (human). O15492+P09471. 220,000 compounds, 0.38% hits. AID 1441. binding response (% of control), % at 10 µM. bead-based flow cytometry RGS16-Galphao binding, fluorescence; actives lie on both sides;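 active = below 25% or above 175%, edge rows of some plates excepted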;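 also: Galphao activated by GDP with aluminum fluoride before binding; 100% = wells without compound and 0% = beads without RGS; some results beyond the cut were filed as inactive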
Target sequence (O15492 whole entry, looked up): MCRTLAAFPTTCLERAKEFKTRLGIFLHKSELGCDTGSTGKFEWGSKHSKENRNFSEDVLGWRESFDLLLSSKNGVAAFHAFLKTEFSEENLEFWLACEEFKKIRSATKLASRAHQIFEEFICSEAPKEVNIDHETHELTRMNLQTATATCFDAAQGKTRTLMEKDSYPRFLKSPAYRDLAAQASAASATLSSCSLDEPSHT
Target sequence (P09471 whole entry, looked up): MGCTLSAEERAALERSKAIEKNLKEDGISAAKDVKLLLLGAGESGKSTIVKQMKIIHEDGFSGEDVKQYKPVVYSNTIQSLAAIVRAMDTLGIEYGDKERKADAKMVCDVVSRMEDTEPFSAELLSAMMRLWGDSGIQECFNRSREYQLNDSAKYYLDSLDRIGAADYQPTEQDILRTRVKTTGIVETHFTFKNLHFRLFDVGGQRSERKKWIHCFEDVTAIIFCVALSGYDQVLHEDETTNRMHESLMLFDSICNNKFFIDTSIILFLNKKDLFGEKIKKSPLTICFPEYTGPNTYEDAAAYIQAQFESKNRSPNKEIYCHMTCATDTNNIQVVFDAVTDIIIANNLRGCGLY
INS promoter inh – TRM-6 insulin promoter activity inhibition | AID 1273 | inhibition, % at 2 µM | 130,000 compounds, 0.9% hits | TRM-6 cells (human fetal islet line), insulin promoter-eGFP reporter, imaging; reporter expression induced with tamoxifen;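 active = inhibition above the mean plus 3 SD, with well images judged a real hit on visual review, cut at about 60% in these data, passing the limit was not always enough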
PKD1 kinase inh – PKD1 (human) kinase inhibition; Q15139; PKD1 kinase fluorescence polarization assay; inhibition, %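 (about 10 µM by stock and volumes)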; 200,000 compounds, 0.056% hits; AID 797;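 active = inhibition of 50% or more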;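 also: controls were vehicle for no effect and a reference inhibitor for full effect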
HSV augment – HSV replication enhancement; HSV replication augmentation in cells, fold increase; maximum fold increase; 220,000 compounds, 0.005% hits;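 active = peak rise of 1.5-fold or more in the series; tested in PC3 cells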;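 also: first round at 10 µM; read as green reporter fluorescence; hits show the peak of a series up to 25 µM; 1 = signal of infected wells without compound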
GALR2 ag – activates the human galanin receptor 2 | O43603 | GALR2-expressing cells, agonist activation read-out | activation, %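 (tested at 5 µM)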 | 140,000 compounds, 0.48% hits;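 active = above mean plus 3 SD of all compounds, about 5% in these data, not always enough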;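 also: 0% = vehicle buffer wells and 100% = reference agonist at full effect; tested in CHO reporter cells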
Target sequence (O43603 whole entry, looked up): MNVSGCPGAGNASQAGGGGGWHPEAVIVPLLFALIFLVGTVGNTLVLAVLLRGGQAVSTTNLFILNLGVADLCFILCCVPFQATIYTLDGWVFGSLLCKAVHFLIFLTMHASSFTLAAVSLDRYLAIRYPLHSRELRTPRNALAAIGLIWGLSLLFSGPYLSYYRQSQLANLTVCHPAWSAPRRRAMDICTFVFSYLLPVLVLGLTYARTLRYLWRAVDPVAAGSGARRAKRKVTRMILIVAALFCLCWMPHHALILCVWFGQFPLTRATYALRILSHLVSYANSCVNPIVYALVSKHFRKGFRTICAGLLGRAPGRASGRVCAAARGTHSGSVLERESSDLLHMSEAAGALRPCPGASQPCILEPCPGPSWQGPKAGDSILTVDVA
INS promoter inh cell count – second read-out of INS promoter inh, no call of its own (marks repeat the call); normalized cell count, %; measured here: cell count, toxicity; reference of the scale not given here;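 cells exposed to compound for 48 h; stained nuclei by imaging scaled within each plate; lower means fewer cells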
HSV augment primary fold – further read-out of HSV augment, marked with its call; fold increase; compound at 10 µM; measured here: primary screen fold increase 10 uM; tested in PC3 cells;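 GFP signal in the first replicate; 1 = infected wells without compound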
An asterisk follows results filed as active.

Results for COc1ccc(Oc2coc3cc(OC(=O)c4cccs4)ccc3c2=O)cc1 ?
RGS16-Gao HTS: 99; INS promoter inh: -14; PKD1 kinase inh: 4; HSV augment: inactive; GALR2 ag: -3.7; INS promoter inh cell count: 117; HSV augment primary fold: 0.93

Results for Cc1ccc2nc(-c3ccc(NC(=O)CNC4CC4)cc3)sc2c1 ?
RGS16-Gao HTS: 83; PKD1 kinase inh: -5; HSV augment: inactive; HSV augment primary fold: 0.68

How did CCOC(=O)Cc1csc(NS(C)(=O)=O)n1 do in these assays?
RGS16-Gao HTS: 107; INS promoter inh: -43; PKD1 kinase inh: -4; HSV augment: inactive; GALR2 ag: -1.1; INS promoter inh cell count: 20; HSV augment primary fold: 0.96

What do the screens show for `O=C(NCCO)C(=O)NCC1OCCCN1S(=O)(=O)c1cccs1` (stereo unspecified)?
RGS16-Gao HTS: 101; INS promoter inh: -43; PKD1 kinase inh: 2; HSV augment: inactive; GALR2 ag: 0.4; INS promoter inh cell count: 123; HSV augment primary fold: 1.1

Results for NC(=O)c1cc2cc([N+](=O)[O-])ccc2oc1=O ?
RGS16-Gao HTS: 103; PKD1 kinase inh: 2; HSV augment: inactive; HSV augment primary fold: 0.89

How did CCN(Cc1cc2cc(C)ccc2[nH]c1=O)C(=O)c1cccc([N+](=O)[O-])c1 do in these assays?
RGS16-Gao HTS: 82; HSV augment: inactive; HSV augment primary fold: 0.93

Results for CCC(C)C(NC(=O)OCc1ccccc1)C(=O)NC(Cc1ccc(O)cc1)C(=O)OC (stereo unspecified) ?
RGS16-Gao HTS: 102; PKD1 kinase inh: 1; HSV augment: inactive; HSV augment primary fold: 0.92

What do the screens show for `Nc1nonc1-c1noc(CCCN2C(=O)c3ccccc3C2=O)n1`?
RGS16-Gao HTS: 100; INS promoter inh: 19; PKD1 kinase inh: -8; HSV augment: inactive; GALR2 ag: -3.2; INS promoter inh cell count: 102; HSV augment primary fold: 0.93

Results for O=C(O)C(O)C(O)c1nc2ccccc2[nH]1 (stereo unspecified) ?
RGS16-Gao HTS: 96; PKD1 kinase inh: -5; HSV augment: inactive; HSV augment primary fold: 0.99

What do the screens show for `CC(C)c1ccc(NC(=O)NC2CCN(CC(=O)Nc3cccc4ccccc34)CC2)cc1`?
RGS16-Gao HTS: 99; INS promoter inh: 5; PKD1 kinase inh: -6; GALR2 ag: -2.0; INS promoter inh cell count: 113

How did COc1ccc2nc3oc(C(=O)N4CCN(c5cccc(Cl)c5)CC4)cc3cc2c1 do in these assays?
RGS16-Gao HTS: 93; INS promoter inh: -8; PKD1 kinase inh: -9; HSV augment: inactive; GALR2 ag: 0.9; INS promoter inh cell count: 143; HSV augment primary fold: 0.9

Results for Cc1ccc(S(=O)(=O)N(CCO)Cc2cc3ccc(C)c(C)c3[nH]c2=O)cc1 ?
RGS16-Gao HTS: 100; PKD1 kinase inh: -12; HSV augment: inactive; GALR2 ag: -0.3; HSV augment primary fold: 1.1

What do the screens show for `CCOC(=O)N1CCC(NCCNC(=O)c2ccccc2)CC1`?
RGS16-Gao HTS: 103; INS promoter inh: 59; PKD1 kinase inh: 3; HSV augment: inactive; GALR2 ag: -0.7; INS promoter inh cell count: 53; HSV augment primary fold: 0.86

What do the screens show for `Cc1ccc(S(=O)(=O)c2cnc3cc(C)nn3c2N)cc1`?
RGS16-Gao HTS: 101; PKD1 kinase inh: -7; HSV augment: inactive; HSV augment primary fold: 0.96

Results for NC(=O)c1ccc2c(c1)OCCO2 ?
RGS16-Gao HTS: 98; INS promoter inh: 37; PKD1 kinase inh: 0; HSV augment: inactive; GALR2 ag: -2.5; INS promoter inh cell count: 122; HSV augment primary fold: 0.96

Results for CCCCCC(=O)Nc1cccc(C2=NOC3(C2)C[C@H](C(N)=O)N(C(=O)c2ccccc2)C3)c1 (stereo partly specified) ?
RGS16-Gao HTS: 76; HSV augment: inactive; HSV augment primary fold: 0.83

Results for CCCC(C(=O)NCc1ccco1)N(C(=O)CNS(=O)(=O)c1ccccc1)c1ccccc1OC (stereo unspecified) ?
RGS16-Gao HTS: 102; PKD1 kinase inh: -4; HSV augment: inactive; GALR2 ag: 0.4; HSV augment primary fold: 0.88

What do the screens show for `COc1ccc(OC(=O)c2cccc([N+](=O)[O-])c2)c(C(=O)/C=C/c2cccs2)c1`?
RGS16-Gao HTS: 98; INS promoter inh: -38; PKD1 kinase inh: 0; HSV augment: inactive; GALR2 ag: 7.5; INS promoter inh cell count: 105; HSV augment primary fold: 0.96

What do the screens show for `Cc1nnc(SCC(=O)c2ccc(Br)cc2)s1`?
RGS16-Gao HTS: 96; INS promoter inh: 79*; PKD1 kinase inh: 3; HSV augment: inactive; INS promoter inh cell count: 142*; HSV augment primary fold: 0.97

How did O=C(O)C1=C[C@H](c2cccs2)C[C@H](OCc2ccc(CO)cc2)O1 do in these assays?
RGS16-Gao HTS: 99; HSV augment: inactive; HSV augment primary fold: 0.98

How did COc1ccc(/C=C2\C(=O)OCc3cc(OC)c(OC)cc32)cc1OC do in these assays?
RGS16-Gao HTS: 104; PKD1 kinase inh: -11; HSV augment: inactive; GALR2 ag: 0.4; HSV augment primary fold: 1.1

How did O=[N+]([O-])/C=C/c1cn(Cc2ccccc2)c2ccccc12 do in these assays?
RGS16-Gao HTS: 89; INS promoter inh: 62; PKD1 kinase inh: -18; HSV augment: inactive; GALR2 ag: 0.8; INS promoter inh cell count: 65; HSV augment primary fold: 0.91

Results for CC(C)(C)OC(=O)NCCCC[C@@H](C(=O)N1CCN(C(=O)OC(C)(C)C)CC1)n1cc(CCC(=O)O)nn1 ?
RGS16-Gao HTS: 97; PKD1 kinase inh: -7; HSV augment: inactive; HSV augment primary fold: 0.97

How did CSc1nnc(-c2cnccn2)n1C do in these assays?
RGS16-Gao HTS: 100; INS promoter inh: 14; PKD1 kinase inh: -6; HSV augment: inactive; GALR2 ag: 0.7; INS promoter inh cell count: 96; HSV augment primary fold: 1

How did c1csc(-c2nc3ccccc3[nH]2)c1 do in these assays?
RGS16-Gao HTS: 125; PKD1 kinase inh: -1; HSV augment: inactive; GALR2 ag: -2.2; HSV augment primary fold: 0.93

How did O=C(CN1CCN(Cc2ccc3c(c2)OCO3)CC1)Nc1ccc2c(c1)OCCO2 do in these assays?
RGS16-Gao HTS: 103; INS promoter inh: -22; PKD1 kinase inh: -4; HSV augment: inactive; GALR2 ag: -1.6; INS promoter inh cell count: 132; HSV augment primary fold: 1

How did Cc1cc(C(=O)CSc2nnc3c(Cl)cc(Cl)cn23)c(C)n1C do in these assays?
RGS16-Gao HTS: 109; INS promoter inh: -33; PKD1 kinase inh: -7; HSV augment: inactive; GALR2 ag: -0.6; INS promoter inh cell count: 140; HSV augment primary fold: 0.91

How did COCCn1c(=O)c2ccccc2c2ccccc2c1=O do in these assays?
RGS16-Gao HTS: 94; PKD1 kinase inh: 0; HSV augment: inactive; HSV augment primary fold: 1

What do the screens show for `COc1ccc(CCNC(=O)c2cc(C(=O)c3cc(C)ccc3O)cn(CCc3ccc(OC)cc3)c2=O)cc1`?
RGS16-Gao HTS: 102; INS promoter inh: 25; PKD1 kinase inh: -2; HSV augment: inactive; GALR2 ag: -1.9; INS promoter inh cell count: 100; HSV augment primary fold: 0.9

What do the screens show for `CCOc1cc(N2CCOCC2)c(OCC)cc1NC(=O)COc1ncnc2ccc(Br)cc12`?
RGS16-Gao HTS: 105; INS promoter inh: -22; PKD1 kinase inh: -4; HSV augment: inactive; GALR2 ag: -2.5; INS promoter inh cell count: 127; HSV augment primary fold: 0.87

How did CCS(=O)(=O)N1Cc2ccccc2CC1C(=O)NCC12CC3CC(CC(C3)C1)C2 (stereo unspecified) do in these assays?
RGS16-Gao HTS: 103; INS promoter inh: -8; PKD1 kinase inh: -9; HSV augment: inactive; GALR2 ag: 0.3; INS promoter inh cell count: 157; HSV augment primary fold: 1

Results for C=CCn1c(C)csc1=Nc1ccc(C(=O)O)cc1 ?
RGS16-Gao HTS: 99; PKD1 kinase inh: 0; HSV augment: inactive; HSV augment primary fold: 1

Results for CCN(CC)CCN1C(=O)C(=O)/C(=C(/O)c2c(C)[nH]c(C(=O)OC)c2C)C1c1cccc(OC)c1 (stereo unspecified) ?
RGS16-Gao HTS: 95; PKD1 kinase inh: -3; HSV augment: inactive; GALR2 ag: -0.6; HSV augment primary fold: 0.67

Results for CCCCNC(=O)Nc1nc2ccc(CC)cc2s1 ?
RGS16-Gao HTS: 101; INS promoter inh: 21; PKD1 kinase inh: -2; INS promoter inh cell count: 106

How did COc1ccc(NC(=O)c2ccc(=O)[nH]c2)cc1S(=O)(=O)N1CCCCC1 do in these assays?
RGS16-Gao HTS: 110; INS promoter inh: 4; PKD1 kinase inh: -7; HSV augment: inactive; GALR2 ag: -0.5; INS promoter inh cell count: 105; HSV augment primary fold: 0.93

Results for CCOc1ccc(C(=O)CC(Sc2ccc(C)cc2)C(=O)O)cc1 (stereo unspecified) ?
RGS16-Gao HTS: 96; INS promoter inh: 20; PKD1 kinase inh: -7; HSV augment: inactive; INS promoter inh cell count: 95; HSV augment primary fold: 1.1

How did Cc1c([C@@H]2C[C@H]3CN(Cc4cccc(Cl)c4)C(=O)[C@]34CCCN24)cnn1C do in these assays?
RGS16-Gao HTS: 98; PKD1 kinase inh: 5; HSV augment: inactive; HSV augment primary fold: 1.2

How did C/C(Cn1nc([N+](=O)[O-])cc1C)=N\NC(=O)c1ccc(C(C)(C)C)cc1 do in these assays?
RGS16-Gao HTS: 106; PKD1 kinase inh: -2; HSV augment: inactive; GALR2 ag: -1.7; HSV augment primary fold: 0.79

Results for O=C1CC(NCCC2=CCCCC2)C(=O)N1c1cccc(Cl)c1Cl (stereo unspecified) ?
RGS16-Gao HTS: 99; PKD1 kinase inh: 12; HSV augment: inactive; GALR2 ag: -1.7; HSV augment primary fold: 1

How did CCOc1cc(/C=N/NC(=O)C(=O)NC2CC2)cc(Br)c1O do in these assays?
RGS16-Gao HTS: 105; INS promoter inh: -61; PKD1 kinase inh: -2; HSV augment: inactive; GALR2 ag: -1.6; INS promoter inh cell count: 115; HSV augment primary fold: 0.96

Three structures already listed, sorted by number of heavy atoms, smallest number first:
How did O=[N+]([O-])/C=C/c1cn(Cc2ccccc2)c2ccccc12 do in these assays?
RGS16-Gao HTS: 89; INS promoter inh: 62; PKD1 kinase inh: -18; HSV augment: inactive; GALR2 ag: 0.8; INS promoter inh cell count: 65; HSV augment primary fold: 0.91

What do the screens show for `CCOc1cc(N2CCOCC2)c(OCC)cc1NC(=O)COc1ncnc2ccc(Br)cc12`?
RGS16-Gao HTS: 105; INS promoter inh: -22; PKD1 kinase inh: -4; HSV augment: inactive; GALR2 ag: -2.5; INS promoter inh cell count: 127; HSV augment primary fold: 0.87

What do the screens show for `COc1ccc(CCNC(=O)c2cc(C(=O)c3cc(C)ccc3O)cn(CCc3ccc(OC)cc3)c2=O)cc1`?
RGS16-Gao HTS: 102; INS promoter inh: 25; PKD1 kinase inh: -2; HSV augment: inactive; GALR2 ag: -1.9; INS promoter inh cell count: 100; HSV augment primary fold: 0.9

Additional compounds follow.
How did COc1cccc(CSc2nc3ccncc3[nH]2)c1 do in these assays?
RGS16-Gao HTS: 102; HSV augment: inactive; HSV augment primary fold: 0.98

Results for COCc1cc(C)nc(NCCO)c1C#N ?
RGS16-Gao HTS: 111; INS promoter inh: 14; PKD1 kinase inh: -1; HSV augment: inactive; GALR2 ag: -1.4; INS promoter inh cell count: 165; HSV augment primary fold: 0.93

How did CCOc1ccc(/C=N/Nc2ccccn2)cc1OC do in these assays?
RGS16-Gao HTS: 101; PKD1 kinase inh: -8; HSV augment: inactive; HSV augment primary fold: 0.89

How did COc1cc(/C=N/Nc2nn3cnnc3c3ccccc23)ccc1O do in these assays?
RGS16-Gao HTS: 102; INS promoter inh: 43; PKD1 kinase inh: 2; HSV augment: inactive; GALR2 ag: 0.1; INS promoter inh cell count: 85; HSV augment primary fold: 1.1

What do the screens show for `Cc1cccc2cc(CN(Cc3nnnn3C3CCCCC3)C3CCCC3)c3nnnn3c12`?
RGS16-Gao HTS: 99; INS promoter inh: -38; PKD1 kinase inh: -1; HSV augment: inactive; GALR2 ag: -0.4; INS promoter inh cell count: 70; HSV augment primary fold: 0.88

How did O=C1OC2(CCCCC2)OC(=O)C1=CNc1nccs1 do in these assays?
RGS16-Gao HTS: 102; INS promoter inh: 12; PKD1 kinase inh: -13; HSV augment: inactive; GALR2 ag: 0.1; INS promoter inh cell count: 101; HSV augment primary fold: 1

How did Cc1nc(NC(=O)/C=C/c2ccccc2)sc1C(=O)Nc1ccccc1Cl do in these assays?
RGS16-Gao HTS: 99; INS promoter inh: -30; PKD1 kinase inh: -5; HSV augment: inactive; GALR2 ag: -1.2; INS promoter inh cell count: 72; HSV augment primary fold: 0.87

What do the screens show for `CN(C)NC(=S)Nc1ccc(Cl)cc1`?
RGS16-Gao HTS: 105; INS promoter inh: -57; PKD1 kinase inh: -1; HSV augment: inactive; GALR2 ag: -1.3; INS promoter inh cell count: 75; HSV augment primary fold: 1
